# Screens as filed in PubChem BioAssay.
# TRPV1 potentiator: enhances activation of the human vanilloid receptor TRPV1. potentiation, % at 8.33 µM. AID 540277. 320,000 tested, 0.02% active. TRPV1-expressing cells, Fluo-8 calcium influx, capsaicin EC20 potentiation; host cell line not named in the record; control for the full effect not named in the record; active means potentiation above 80%; inconclusive means 30% to 80%; inactive means below 30%; also: 0% is about no effect
#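 Cells expressing TRPV1 were dye-loaded with Fluo-8 and read kinetically: 10 s baseline, 3 min after compound (agonist portion), then 2 min after EC20 capsaicin (allosteric enhancer portion). Calcium-bound dye fluorescence at 480/520 nm.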
# Sfp inh: blocks B. subtilis Sfp PPTase activity | Biochemical Sfp PPTase activity, qHTS | Potency, µM, for the others: max response, negative = inhibition, actives largely listed as inhibitors | 310,000 tested, 3.5% active; active = well fitted inhibition curve with a large enough effect; inconclusive = small, poorly fitted or top-dose-only effect, or another doubt; inactive = no such curve, though single readings can be large or run the other way;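 also: the enzyme is Sfp with the accession as filed and its product quenches rhodamine fluorescence; potency is read from the fitted curve at half-maximal effect; 0% = enzyme reaction without inhibitor and -100% = no enzyme wells; top concentration of the series not given in the record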
#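 Buffer: 50 mM Hepes-Na pH 7.6, 10 mM MgCl2, 0.01% Nonidet P-40, 0.01% BSA. Enzyme 15 nM, pre-exposed to compound 15 min; substrates then added and fluorescence change tracked over 30 min.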
# gsp ag: activates gsp, the McCune-Albright syndrome mutation. 340,000 tested, 0.13% active. Potency, µM (highest dose often 76.9 µM), for inactives: at the top dose activation (cAMP increase), most hits filed as activators. AID 624287. gsp mutant cells, cAMP HTRF, 30 min; control for the full effect not named in the record; active = well fitted activation curve with a large enough effect; inconclusive = small, poorly fitted or top-dose-only effect, or another doubt; inactive = no such curve, though single readings can be large or run the other way; cell line not stated here;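 also: phosphodiesterase inhibitor Ro 20-1724 added with compounds to block cAMP breakdown; potency is read from the fitted curve at half-maximal effect; nearly all actives have a fitted effect of over 60% in size; about a fifth of the inactives were tested at one dose only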
#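 Cells stably selected in G418 were plated at 2000/well, grown 16-24 hr, then given compounds in DMSO with the PDE inhibitor […] (300 uM solution added) for 30 min at 37C; cAMP was read by HTRF.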
# D2 potentiator: positive allosteric modulators of human D2 dopamine receptor; potentiation, % (no concentration beside the values); DiscoveRx D2 beta-arrestin cells, luminescence, 90 min; 100% = 57 uM dopamine signal; P14416; 360,000 tested, 0.23% active; active = potentiation of 50% or more; inconclusive = 30% to 50%; inactive = 30% or less;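 also: compound concentration not given in the record; tested on top of an EC20 dose of dopamine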
# Target sequence (P14416 whole entry, looked up): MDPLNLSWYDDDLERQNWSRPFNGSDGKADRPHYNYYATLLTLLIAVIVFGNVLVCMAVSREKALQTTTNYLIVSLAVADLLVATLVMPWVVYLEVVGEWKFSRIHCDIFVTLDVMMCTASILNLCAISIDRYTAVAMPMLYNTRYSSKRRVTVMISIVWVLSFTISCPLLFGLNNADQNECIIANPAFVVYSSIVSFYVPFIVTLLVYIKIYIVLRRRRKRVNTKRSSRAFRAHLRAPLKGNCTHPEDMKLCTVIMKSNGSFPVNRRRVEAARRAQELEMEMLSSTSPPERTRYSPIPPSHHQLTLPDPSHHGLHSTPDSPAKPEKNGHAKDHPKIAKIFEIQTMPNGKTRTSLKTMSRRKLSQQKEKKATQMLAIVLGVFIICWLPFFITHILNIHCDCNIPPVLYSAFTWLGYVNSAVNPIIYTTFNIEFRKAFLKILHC
#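 PathHunter beta-arrestin assay in DiscoveRx D2 cells. Compounds were added with an EC20 of dopamine (50 nM final) for 90 min at 37 deg C. Luminescence was read 1 h after detection reagent, with 57 uM dopamine as the EC100 control.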
# ClpP mod: qHTS Assay for Activators of ClpP; purified B. subtilis ClpP, FRET peptide cleavage, 20 min; Potency, µM (doses to about 57.5 µM), without a hit: at the top dose activity change, negative = active; AID 651965, 2013; 340,000 tested, 1.9% active; active = well fitted falling curve with a large enough effect; inconclusive = small, poorly fitted or top-dose-only effect; inactive = no such curve, though single readings can be large or run the other way; also: potency is read from the fitted curve at half-maximal effect; the source files actives as falling curves though it sought activators and does not explain the sign; nearly all actives have a fitted effect of over 65% in size; many hits overshoot -100%
# Target sequence (P80244 whole entry, looked up): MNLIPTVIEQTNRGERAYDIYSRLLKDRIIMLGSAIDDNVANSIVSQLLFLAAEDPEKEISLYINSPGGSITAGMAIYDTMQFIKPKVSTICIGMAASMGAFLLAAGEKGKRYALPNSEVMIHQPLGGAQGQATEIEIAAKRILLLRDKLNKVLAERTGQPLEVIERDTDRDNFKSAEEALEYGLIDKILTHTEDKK
#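 Purified B. subtilis ClpP, 10 microg/mL final in Tris/HCl pH8 with KCl, BSA, glycerol and Tween-20, cleaved an Abz/nitrotyrosine-quenched decapeptide. Fluorescence (ex 320, em 430) was read at 0 and 20 min at room temperature. Delta was normalized to 5.8 microM ADEP and DMSO/no-enzyme controls.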
# gsp antag: antagonizes gsp, the McCune-Albright syndrome mutation; gsp-mutant cells, cAMP HTRF, 30 min; control for the full effect not named in the record; Potency, µM (doses to about 76.9 µM), inactives show at the top dose activity change, negative = inhibition, most hits filed as inhibitors; 340,000 tested, 0.4% active; AID 624288; active = falling curve of any shape with a large fitted effect; inconclusive = falling curve, mostly with a smaller effect; inactive = flat or rising curve; cell line not stated here;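 also: intracellular cAMP measured with PDE inhibitor Ro 20-1724 present during compound exposure; potency is read from the fitted curve at half-maximal effect; % is scaled to controls: 0 for no effect and ±100 for the full control effect; nearly all actives have a fitted effect of over 65% in size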
#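 Measurement of cellular cAMP by homogeneous time-resolved fluorescence following a 30 min compound exposure at 37C. The PDE inhibitor […] was present throughout; the assay buffer was DPBS with 0.05% BSA and 0.005% Tween 20.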
# Menin MLL FP FL: inhibitors of human menin-MLL interaction, wild-type MLL peptide; Fluorescence polarization, fluorescein-MLL peptide displacement from menin; FP activity change, % at 61.4 µM; 290,000 tested, under 10 active; AID 1766; inconclusive = falling polarisation curve, or a change in total fluorescence; inactive = total fluorescence flat and polarisation flat or rising; no compound was filed as active; the % refers to the polarisation; negative = inhibition;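 also: % of control where 0% means no effect; inhibitors lower the polarisation; unlabelled MLL peptide was the positive control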
# Starred values were filed as active, the others as inactive; ? = inconclusive; / = no result given; [ ] = dose if it differs, or a comment.
SMILES,TRPV1 potentiator,Sfp inh,gsp ag,D2 potentiator,ClpP mod,gsp antag,Menin MLL FP FL
CC(C)c1ccc(NC(=O)C2CCCN(S(=O)(=O)c3cccnc3)C2)cc1 (stereo not given),-13,17%,-10%,-10,/,-13%,-7.8
Cn1c(=O)c(-c2ccccc2)nn2c3ccccc3nc12,1,8%,11%,-2,1.0%,5%,1.3
CN(C)CCCN(Cc1ccccc1)C(=S)Nc1cccc(C(F)(F)F)c1,-5,-12%,-13%,-30,1.0%,19%,-0.7
O=C(Nc1ccccc1)Nc1nnc(Cc2ccccc2F)s1,?,-5%,9%[15.4 µM],-11,-2.4%,-11%,2.2
O=C(Nc1nnc(-c2ccco2)o1)c1ccc(Cl)s1,0,32%[activator],6%,-19,1.5%,-11%,/
O=C(Nc1nccs1)c1cnccn1,9,?,4%,-6,2.1%,3%,3.8
O=S1(=O)[C@H]2C[C@H](CO)O[C@@]2(CO)CN1Cc1ccc(-c2ccc(F)cc2)cc1,/,/,/,4,3.2%,0%,/
COc1ccccc1OCCSc1nc2ccccc2n1CC(N)=O,8,18%,-3%[15.4 µM],-1,-1.0%,9%,-0.4
CC(=O)c1ccc(NC(=S)NC(=O)/C=C/c2ccccc2)cc1,2,0%,4%,-2,0.1%,-6%,3.9
O=C(C[C@@H]1C/C=C/CC[C@@H](Cc2ccc(F)cc2)C(=O)O[C@@H](c2ccccc2)CNC1=O)NCCO,/,/,6%,15,1.2%,-4%,/
O=C(CN1CCSCC1)N/N=C/c1ccc(F)c(F)c1,5,?,-32%[inhibitor],-12,-0.9%,0%,0.1
O=C(Nc1ccccc1-c1nnn(CC(=O)N2CCCc3ccccc32)n1)c1cccc(Cl)c1,/,/,-8%,-15,20µM*,-26%,/
Cc1c(O)c(CN2CCCC2)cc2c1oc(=O)c1ccccc12,-5,14%,27%,-15,-8.0%,-17%,3.0
Cc1ccc(C(=O)N2CCN(c3ccc(NC(=O)c4cccnc4)cc3)CC2)cc1,4,8%,-11%,7,0.0%,-4%,5.1
Cc1cc(C)cc(NC(=O)C(=S)NCc2ccccc2)c1,5,7%,-17%,-5,/,-6%,2.6
CCOc1cccc2c1OC1(CCCCC1)N1N=C(c3cccnc3)CC21 (stereo not given),-18,-4%,0%,-6,-0.2%,-6%,0.0
O=C(O)CCCN1C(=O)C2C3CCC(O3)C2C1=O (stereo not given),-14,22%,10%[15.4 µM],-1,-0.1%,-2%,/
O=C(c1ccncc1)N(c1ccc2oc3c(c2c1)CCCC3)S(=O)(=O)c1cccc([N+](=O)[O-])c1,-1,-8%,-21%,2,-1.9%,-5%,8.9
CCOC(=O)C1(C)NC(c2ccc(OC)c(OC)c2)C2C(=O)N(c3cccc(C(C)=O)c3)C(=O)C21 (stereo not given),/,/,-8%,-1,-2.3%,/,/
COC(=O)[C@H]1C[C@@]2(O)CN(S(=O)(=O)c3ccc(C)cc3)C[C@@]2(OC(=O)NCc2ccccc2)C[C@H]1C(=O)OC,/,/,?,5,2.0%,/,/
O=C(NCCc1ccccc1)c1cccc2c1C(=O)c1ccc(N3CCOCC3)cc1S2(=O)=O,/,/,?,-9,-0.2%,-26%,/
Cn1cc(CCC(=O)NC2CC2)c2ccccc21,0,14%,?,-7,/,-2%,2.3
O=C(/C=C\c1ccc2c(c1)OCO2)Nc1c2c(nn1-c1ccc(Cl)cc1)CSC2,3,-19%,-4%,-1,?,2%,4.6
Cc1nc(SCC(=O)NC(=O)NCCC(C)C)c2c(-c3cccs3)csc2n1,-4,-5%,11%,-11,-10.0%,?,4.0
COc1cc2ccccc2cc1C(=O)Nc1ccc(CN2CCOCC2)cc1,-4,10%,-9%[15.4 µM],-6,/,7%,-3.0
COc1ccc([N+](=O)[O-])cc1N(CC(O)CN1CCCC1)S(=O)(=O)c1ccc(C)cc1 (stereo not given),1,-4%,?,-19,/,4%,-1.2
O/C(=C\c1nc2ccccc2[nH]1)c1cccs1,-1,-12%,8%[15.4 µM],-2,/,2%,-3.7
Cc1cc(N2CCC(C)CC2)nc(SCC(=O)c2ccccc2)n1,-26,-2%,-2%,-14,2.0%,?,1.1
CCCCCCCCNS(=O)(=O)CCNCc1ccc(OC)cc1,/,/,/,-16,-2.2%,0%,/
CCN(CC(=O)N1CCOCC1)S(=O)(=O)c1ccc(F)cc1,10,13%,-2%[15.4 µM],-2,/,4%,2.5

# Reformatted field by field: entries from further up
CCCCCCCCNS(=O)(=O)CCNCc1ccc(OC)cc1
  TRPV1 potentiator = / | Sfp inh = / | gsp ag = / | D2 potentiator = -16 | ClpP mod = -2.2% | gsp antag = 0% | Menin MLL FP FL = /
COc1ccc([N+](=O)[O-])cc1N(CC(O)CN1CCCC1)S(=O)(=O)c1ccc(C)cc1 (stereo not given)
  TRPV1 potentiator = 1 | Sfp inh = -4% | gsp ag = ? | D2 potentiator = -19 | ClpP mod = / | gsp antag = 4% | Menin MLL FP FL = -1.2

# New compounds follow
SMILES,TRPV1 potentiator,Sfp inh,gsp ag,D2 potentiator,ClpP mod,gsp antag,Menin MLL FP FL
CCn1ccnc1CN(C)Cc1cn[nH]c1-c1ccc(OC)c(F)c1,0,-1%,?,-2,/,5%,3.5
CCn1c(SCC(=O)OCc2ccccc2)nc2c1c(=O)n(C)c(=O)n2C,-5,0%,19%,4,-2.9%,-19%,1.1
CC(C)(C)C(=O)Nc1ccc(N=Nc2ccccc2)cc1,19,-6%,1%,-13,0.5%,12%,-4.2
COC(=O)c1c(NC(=O)CN2CCC3(O)CCCCC3C2c2ccc(F)cc2)sc(C)c1C (stereo not given),1,-20%,-1%,-13,-20%,-15%,6.6
O=C(NO)c1ccccc1O,-12,-5%,/,0,-6.0%,7%,2.8
Cc1noc(C)c1-c1ccc2ncnc(NCC3CCCCN3C)c2c1 (stereo not given),1,43%[activator],/,/,/,/,-8.5
O=C(NC(=S)Nc1ccc(NC(=O)c2cccs2)cc1)c1ccc([N+](=O)[O-])cc1,?,10%,-57%[inhibitor],13,2.0%,5%,8.5
COc1ccc(OC)c(/C=C2\N=C(c3ccccc3)OC2=O)c1,-27,14%,-5%,0,/,5%,?
COc1ccccc1CNC(=O)CCS(=O)(=O)c1cccs1,-11,-12%,15%,15,-4.0%,11%,0.5
O=C(OCC(=O)c1c[nH]c2ccccc12)c1cccc(S(=O)(=O)N2CCCCCC2)c1,7,18%,-22%,-11,-2.5%,?,1.7
Cc1cc(C)c2c(=O)n(CC(=O)Nc3ccc(Br)c(C)c3)sc2n1,0,3.2µM*,-18%,-17,-9.7%,-15%,0.6
CCOC(=O)c1ccc(NC(=O)c2ncn3c2C(=O)N[C@H](C)C3)cc1,/,/,6%,2,0.2%,/,/
O=C(O)C1CCN(C(=O)CCc2ccccc2)CC1,-1,6%,13%[15.4 µM],-9,-0.8%,-3%,-0.3
CCCCN(C)CCCNC(=O)/C=C1\Sc2ccccc2NC1=O,1,6%,-24%,-15,-7.5%,-3%,-0.5
CCNc1nc(NCC)nc(N/N=C/c2ccc(Br)cc2)n1,0,0%,18%[15.4 µM],-19,/,-17%,1.5
O=C(c1ccc(S(=O)(=O)N2CCOCC2)cc1)N1CCN=C1SCc1cccnc1,-8,14%,-41%[inhibitor],3,1.3%,-3%,21
COc1ccccc1OC(C)C(=O)N1CC(=O)Nc2ccccc21 (stereo not given),2,10%,-8%,-1,/,9%,2.0
C=CCNC(=O)/C(C#N)=C/c1ccc2c(c1)OCCO2,-9,3%,12%[15.4 µM],-4,/,5%,-1.3
COc1ccc(CCNCCN2CCOCC2)cc1,8,?,-48%[inhibitor],-9,2.1%,1%,-4.9
O=C(C1CC(=O)N(c2ccccc2)C1)N1CCN(c2ccccc2)CC1 (stereo not given),2,13%,8%[15.4 µM],-7,-2.6%,4%,/
CC1SC(C)C(=O)N(CC(=O)NC2CCCCC2)C1=O (stereo not given),-3,-8%,3%[15.4 µM],2,/,6%,-0.2
Nc1ccc2[nH]c(=S)[nH]c2c1,/,/,-6%,0,/,-2%,/
Cc1cc(C)c(S(=O)(=O)N2CCOCC2)c(C)c1N(C)S(=O)(=O)c1ccccc1,-8,11%,13%[15.4 µM],-1,-1.6%,-1%,/
Cc1ncc(CO)c2cc(C(=O)Nc3ccccc3Cl)c(=Nc3cccc(C(N)=O)c3)oc12,1,19%,?,2,1.8%,-23%,0.1
COC(=O)C1=NN(C(=O)c2ccc(C)cc2)C(O)(c2ccc(Cl)cc2)C1 (stereo not given),-6,6%,-35%,4,-1.7%,-7%,14
CCN(CC)S(=O)(=O)c1ccc2[nH]cc(C(=O)NCCc3ccccc3)c(=O)c2c1,-14,19%,-28%,-2,?,-22%,0.7
Cn1c2c(c(=O)n(C)c1=O)CN(Cc1ccc3c(c1)OCO3)CN2,-18,8%,-20%,-6,-4.8%,10%,2.5
COc1ccccc1/C=C/C(=O)Nc1ccc2c(c1)CCC2,-6,4%,10%,-32,-24%,-19%,0.3
NC(=O)c1ncc(C(F)(F)F)cc1Oc1cccc(C(F)(F)F)c1,-21,11%,8%,-1,-19%,8%,0.1
CC(=O)NS(=O)(=O)c1ccc(NC(=O)CSc2ccc(C)cc2)cc1,-8,79µM*,-1%,-4,/,5%,-6.6
CSc1nsc(SC)c1C(=O)NCCNS(=O)(=O)c1ccc(C)cc1,/,50µM*,2%,6,0.4%,-1%,1.0

# One compound at a time, as listed above. Order of values: TRPV1 potentiator, Sfp inh, gsp ag, D2 potentiator, ClpP mod, gsp antag, Menin MLL FP FL
# Listed for COC(=O)C1=NN(C(=O)c2ccc(C)cc2)C(O)(c2ccc(Cl)cc2)C1 (stereo not given) : -6, 6%, -35%, 4, -1.7%, -7%, 14
# Listed for NC(=O)c1ncc(C(F)(F)F)cc1Oc1cccc(C(F)(F)F)c1 : -21, 11%, 8%, -1, -19%, 8%, 0.1
# Listed for Cc1cc(C)c(S(=O)(=O)N2CCOCC2)c(C)c1N(C)S(=O)(=O)c1ccccc1 : -8, 11%, 13%[15.4 µM], -1, -1.6%, -1%, /
# Listed for Cn1c2c(c(=O)n(C)c1=O)CN(Cc1ccc3c(c1)OCO3)CN2 : -18, 8%, -20%, -6, -4.8%, 10%, 2.5
# Listed for Cc1ncc(CO)c2cc(C(=O)Nc3ccccc3Cl)c(=Nc3cccc(C(N)=O)c3)oc12 : 1, 19%, ?, 2, 1.8%, -23%, 0.1
